Source: PubChem BioAssay
Sa growth inh: S. aureus growth inhibition | S. aureus RN4220 growth, OD600, 20 h, 42 °C; stronger effect = lower value | relative growth, % (test concentration not listed) | AID 720641 | 170,000 tested, 0.53% active;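 active means growth at 42 °C up to 50% and 20 or more points under that at 30 °C, or under 10% at both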;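 further: 300 nL library stock went into each well; scaled to the means of positive and negative controls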
HCMV UL50-53 inh: cytomegalovirus nuclear egress complex inhibition; inhibition, % (no concentration beside the values); 190,000 tested, 0.15% active; AID 1918969; HTRF UL50-UL53 interaction, normalized percent inhibition;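 active means both replicates at 50% or more, plus weaker picks with an unusually low signal ratio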;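 further: stock transfer was 100 nL into about 20 µL; 0% = negative control wells and 100% = wells with untagged competitor protein; inactives centre near -12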
GIV-Gai inh: GIV-Galpha-i interaction inhibition | P08753 | 210,000 tested, 0.42% active | Galpha-i3/FITC-GIV peptide fluorescence polarization, 90 min; stronger effect = lower value; scaled: aluminum fluoride 0%, vehicle 100% | percent of control (FP), % (concentration not given with the values) | AID 1224905;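 active means replicate mean at 85% of control or lower, very high polarization wells dropped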;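 further: wells of about 15 µL received 100 nL stock; the first replicate is given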
Target sequence (P08753 whole entry, looked up): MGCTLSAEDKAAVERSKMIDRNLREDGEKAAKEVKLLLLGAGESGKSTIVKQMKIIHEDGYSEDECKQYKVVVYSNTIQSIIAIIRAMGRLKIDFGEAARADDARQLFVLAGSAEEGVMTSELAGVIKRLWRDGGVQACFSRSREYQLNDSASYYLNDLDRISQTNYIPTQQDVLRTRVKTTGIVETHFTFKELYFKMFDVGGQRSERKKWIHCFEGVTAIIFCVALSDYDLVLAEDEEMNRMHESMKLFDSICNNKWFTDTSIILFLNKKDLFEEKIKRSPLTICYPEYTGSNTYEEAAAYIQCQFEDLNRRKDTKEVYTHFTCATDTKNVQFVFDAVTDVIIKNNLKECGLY
Sa growth inh second temp: further read-out of Sa growth inh, marked with its call; relative growth, %; measured here: growth at 30 °C;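 optical density after 20 h as mean of two plates; 100% = untreated growth and lower means inhibition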
An asterisk follows results filed as active; . = not tested or not shown.

Values run as follows: Sa growth inh | Sa growth inh second temp | HCMV UL50-53 inh | GIV-Gai inh
CCOc1ccc2[nH]c(=O)c(C(c3nnnn3CCOC)N3CCc4ccccc43)cc2c1 (configuration not stated)
→ 109 | 83 | -9 | .
CC(C)S(=O)(=O)/C(C#N)=C/NN1CCOCC1
→ 82 | 81 | -11 | 109
O=C1COc2ccc(-c3cc(-c4ccc(F)cc4)c4c(n3)-c3cc(Cl)ccc3OC4)cc2N1
→ 107 | 88 | -3 | 105
CCN(C)C(=O)Oc1cccc([C@H](C)N(C)C)c1
→ 87 | 81 | -35 | 100
CCOC(=O)c1sc(NC(=O)CSc2cc(-c3ccccc3)ncn2)nc1C
→ . | . | -5 | 101
CC1(C)CC(N(Cc2cccs2)C(=O)c2ccco2)CCO1 (configuration not stated)
→ 113 | 93 | . | 103
Cc1cc(NC(=O)c2ccc(COc3ccc(Cl)c(C)c3)o2)no1
→ 106 | 91 | . | 101
Cc1ccc(-c2cn3c(n2)CCC3)cc1
→ 117 | 90 | -7 | .
COc1ccc(NC(=O)CSc2nc3c(cc2C#N)CCCCC3)cc1
→ . | . | -23 | 100
CCOC(=O)c1sc2nc(CN3CCC(C)CC3)[nH]c(=O)c2c1C
→ 115 | 93 | -16 | .
CC(C)N(C(=O)C[n+]1cccc(/C=N/O)c1)C(C)C
→ 94 | 85 | -22 | 109
CCC(C)NC(=O)c1sc(C)nc1C (configuration not stated)
→ . | . | -13 | 105
CCOc1ccc(OCC)c(NC(=O)CN(C)S(=O)(=O)c2ccc3nc(C)sc3c2)c1
→ 105 | 78 | 2 | 103
CCCCNC(=O)Cc1c(C)[nH]n(-c2nc(C)c(C)s2)c1=O
→ . | . | -6 | 105
S=c1[nH]c2cc(Cl)c3cccnc3c2o1
→ 98 | 82 | -43 | 111
CN(C)c1cc2c(cc1NC(=O)c1ccc(F)cc1)n(C)c(=O)n2C
→ 96 | 83 | 2 | 111
CCOC(=O)N1CCN(Cc2nc3cc([N+](=O)[O-])ccc3n2C(C)C)CC1
→ 105 | 89 | -62 | 101
CCCCC1(O)CCN(Cc2ccccc2)CC1
→ 115 | 93 | -4 | 100
Cc1oc(-c2ccccc2)nc1CN1CCN(C(=O)CN2C(=O)c3ccccc3C2=O)CC1
→ . | . | -49 | 104
CCOC(=O)N1CCN(Cc2nnc(-c3cccc(Br)c3)o2)CC1
→ 101 | 79 | -27 | 104
CN1c2ccccc2-c2nc3ccccc3n2C1c1ccccc1 (configuration not stated)
→ 109 | 77 | . | 95
O=C(CN1CCCCCCC1)N/N=C/c1cccs1
→ 101 | 75 | -26 | 97
COc1cccc(NC(=O)c2cnccc2C(F)(F)F)c1
→ 88 | 88 | -16 | 104
O=c1ccc(-c2nc3ccccc3[nH]2)n[nH]1
→ 93 | 103 | -58 | 106
O=C(CSc1nnc(Cc2cc(=O)[nH]c(=O)[nH]2)n1-c1ccccc1)NCc1ccco1
→ 95 | 88 | -23 | 98
O=C(O)/C=C/C(=O)Nc1ccc(-n2nccc2C(F)(F)F)cc1
→ 110 | 88 | . | 100
Cc1cc(C(=O)COC(=O)/C=C/c2ccc(S(=O)(=O)N3CCOCC3)cc2)c(C)n1C
→ 103 | 81 | -52 | .
CCCN1C(=O)c2c(C(=O)NCc3ccc(OC)cc3)ncn2CC1(C)C(=O)NCc1ccccc1 (configuration not stated)
→ . | . | -25 | 105
Cc1ccc(NS(=O)(=O)c2cc(-c3cc(C)no3)ccc2C)nc1
→ 103 | 92 | -10 | 106
Cc1ccc(OCC(=O)Nc2ccc3nc(SCC(N)=O)sc3c2)cc1
→ 100 | 83 | -29 | 103
CC1CCCCN1c1c(S(=O)(=O)c2ccc(Cl)cc2)cnc2ccccc12 (configuration not stated)
→ 81 | 88 | 8 | 102
CCc1nc(SC)c(C#N)c2c1CCCC2
→ 78 | 95 | -3 | .
CC[C@@]1(O)C[C@H](O[C@H]2C[C@H](N(C)C)[C@H](O[C@H]3C[C@H](O)[C@H](O[C@H]4CCC(=O)[C@H](C)O4)[C@H](C)O3)[C@H](C)O2)c2c(cc3c(c2O)C(=O)c2c(O)cccc2C3=O)[C@H]1C(=O)OC
→ 76 | 33 | -114 | 127
CC(C)(C)OC(=O)C[n+]1ccc(C(N)=O)cc1
→ 102 | 82 | . | 94
CC(C)c1ccc(-c2noc(SCC(=O)N3CCCCC3)n2)cc1
→ 95 | 85 | . | 106
CC(C)CCNC(=O)c1ccc2c(=O)n(Cc3ccc(Cl)cc3)c(=S)[nH]c2c1
→ 106 | 85 | . | 104
CCOC(=O)C1(C(=O)OCC)CCC(=NO)CC1
→ 100 | 90 | -9 | 98
CCN1CCSc2ccc(C(=O)NCc3ccccc3)cc21
→ 101 | 92 | 0 | 110
NCCNC(=S)Nc1ccccc1
→ 108 | 93 | -6 | .
CCOc1ccccc1CNC(=O)C1CCN(S(=O)(=O)c2c(C)noc2/C=C/c2ccc(C)cc2)CC1
→ 94 | 99 | . | 109
CC(=NCCc1cnc[nH]1)c1c(C)[nH]n(-c2ccc(F)cc2)c1=O
→ 100 | 93 | -17 | 106
CCNC(=S)N/N=C1\CCCCC1C (configuration not stated)
→ 103 | 91 | -7 | .
CC1CCN(c2nc(-c3ccccc3)cs2)CC1
→ 104 | 73 | -9 | 99
CN1C(=S)N(C2CC2)C(=O)/C1=C\c1ccc(OC(F)F)cc1
→ 75 | 94 | -21 | .
COc1ccc(Nc2cc(C(=O)NCCCN(C)C3CCCCC3)c3ccccc3n2)c(OC)c1
→ 105 | 86 | -39 | 99
CCSc1nnc(SCC(=O)c2ccc3[nH]c(=O)[nH]c3c2)s1
→ 81 | 96 | 7 | .
Cc1ccc(NC(=O)CCn2c(=O)c3cccn3c3ccccc32)cc1Cl
→ 106 | 102 | 2 | 103
COc1ccc(C2N=C(N3CCc4ccccc43)SC(N)=C2C#N)cc1 (configuration not stated)
→ 69 | 80 | . | 97
CCN1C(=O)/C(=c2\sc3n(c2=O)C(c2ccccc2)C(C(=O)OC)=C(C)N=3)c2ccccc21 (configuration not stated)
→ . | . | -21 | 103
COc1ccc(-c2cc(C(=O)Nc3sc(C)c(C)c3C(N)=O)c3ccccc3n2)cc1
→ . | . | -16 | 109

Other results.
Values run as follows: Sa growth inh | Sa growth inh second temp | HCMV UL50-53 inh | GIV-Gai inh
CC1(C)CC(=O)C=C(NNC(=O)C23CC4CC(CC(C4)C2)C3)C1
→ 110 | 86 | -1 | .
O=C(O)COc1ccc(/C=C2\C(=O)NC(=S)N(c3ccccc3)C2=O)cc1Cl
→ . | . | 6 | 111
O=C(O)CC(C(=O)O)N1C(=O)/C(=C\c2ccco2)SC1=S (configuration not stated)
→ 77 | 81 | -20 | 86
CC(C)(C)c1ccc(N=Cc2ccccn2)cc1
→ 108 | 90 | -28 | .
O=C1OC(/C=C/c2ccc(Cl)cc2)=NC/1=C/c1ccco1
→ 104 | 86 | -19 | 107
CCc1ccc(OCc2nc(C)c(C(=O)Nc3nccs3)s2)cc1
→ . | . | -1 | 109
Cc1ccc(SCC(C)CNC(=O)Nc2ccccc2)cc1 (configuration not stated)
→ 81 | 68 | . | 100
O=C1CC(c2ccc(Cl)cc2)Sc2nc(-c3ccc(F)cc3)nn21 (configuration not stated)
→ 110 | 95 | -16 | 104
O=S1(=O)C[C@H](NCCc2ccc(F)cc2)[C@@H](S(=O)(=O)c2ccc(F)cc2)C1
→ . | . | -18 | 101
CS(=O)(=O)c1ncc(Cl)c(C(=O)Nc2c(C(=O)Nc3ccccc3)oc3ccccc23)n1
→ 116 | 95 | -8 | 102
CC(C)C(=O)Nc1c(C(=O)N2CCCCCC2)oc2ccccc12
→ 87 | 90 | -9 | 103
CCCNC(=O)N(C)Cc1ccccc1
→ 91 | 93 | -24 | .
CC(=O)N1CCN=C1SCc1ccc(C(F)(F)F)cc1
→ 79 | 82 | -45 | 97
COC(=O)c1cc2sccc2n1CC(=O)Nc1ccc(OC)c(OC)c1OC
→ 106 | 93 | 3 | 101
Brc1ccc(-c2csnn2)cc1
→ . | . | -2 | 104
CCC1CCCCN1C(=O)CSc1ncc(-c2ccc(F)cc2)n1CC (configuration not stated)
→ 125 | 100 | 1 | 106
C(=C\c1nn2c(CCc3ccccc3)nnc2s1)/c1ccccc1
→ . | . | -17 | 105
Cc1ccc(C)c(N2CCN(c3nc4ccc(C(=O)c5ccccc5)cc4n4cnnc34)CC2)c1
→ 102 | 87 | -2 | 106
c1ccc(-c2nc(-c3ccc4c(c3)OCO4)cs2)cc1
→ 72 | 81 | -10 | .
COc1ccc(C2=NNC(=O)CC2)cc1
→ 96 | 93 | -4 | 99
Cc1ccccc1NC(=O)Cn1c(NCC(C)O)nc2ccccc21 (configuration not stated)
→ 98 | 90 | -7 | .
COC(=O)c1ncn2c1C(=O)N(c1ccc(F)cc1)C(C)(C(=O)NC1CCCC1)C2 (configuration not stated)
→ . | . | -8 | 104
COc1ccc(CNC(=O)c2c(C)oc3c2cc(OC(C)=O)c2ccccc23)cc1
→ 119 | 94 | . | 105
CCC1(C)Cc2ccccc2-c2c1c(=O)n(Cc1ccccc1)c1nnnn21 (configuration not stated)
→ 100 | 101 | 12 | 113
Cc1cc(Nc2ccccc2O)c2ccccc2n1
→ 94 | 74 | -7 | 120
O=C1N=c2ccccc2=C/C1=C/c1sc(=S)n(Cc2ccccc2)c1O
→ 126 | 80 | -38 | .
CC(C)Cc1nc(CNC(=O)c2coc(C3CC3)n2)no1
→ . | . | -3 | 95
CC(C)CNC(=O)Nc1cc(C(=O)NCc2ccc(C(C)C)cc2)ccc1N1CCCC1
→ 87 | 91 | . | 100
Cc1cc(-c2ccco2)n(CC(=O)NCCCc2ccccc2)n1
→ 101 | 86 | 4 | 108
O=C(OCCSc1cnc2ccccc2n1)c1cc(Cl)cc(Cl)c1
→ 101 | 81 | -54 | 103
Cc1cc(N2CCCC(O)C2)nc(C)n1 (configuration not stated)
→ 114 | 82 | -4 | 101
COc1ccc(/C=C2\SC(=S)N(C(CC(=O)O)C(=O)O)C2=O)cc1 (configuration not stated)
→ . | . | -60 | 95
CCCC(c1nnnn1C(C)(C)C)N(Cc1ccco1)Cc1cc2ccc(C)cc2[nH]c1=O (configuration not stated)
→ 100 | 98 | -26 | 99
CCOC(=O)c1cnn2c(-c3ccc(Cl)cc3)ccnc12
→ . | . | -67 | 107
CCN(CC)S(=O)(=O)c1ccc(C(=O)Nc2ncn(Cc3ccccc3)n2)cc1
→ 94 | 92 | 1 | 99
O=C(c1ccc([N+](=O)[O-])cc1)N1N=C(c2ccncc2)CC1(O)C(F)(F)F (configuration not stated)
→ . | . | -49 | 104
O=C(COc1ccc(Br)cc1)Oc1cccc(-n2cnnn2)c1
→ . | . | -10 | 104
COc1ccc2[nH]c3c(=O)n(/N=C/c4ccccc4)cnc3c2c1
→ 105 | 91 | -28 | 95
CCCc1cc(=O)[nH]c(SCc2nc(-c3ccc(C)cc3)oc2C)n1
→ . | . | -11 | 102
Cc1oc2c(c1C(=O)Nc1ccc(I)cc1)CCCC2
→ 129 | 89 | -10 | 106
C=CCn1c(SCC(=O)c2ccccc2)nc2ccccc21
→ 116 | 84 | 5 | .
Cc1ccc(NC(=O)Cn2nnc3sc4c(c3c2=O)CCCC4)c(C)c1
→ 91 | 93 | -16 | 101
CC(C)(C)C(C)(C)O
→ 75 | 95 | -9 | .
COc1ccc(CNC(=O)c2cnn3c(-c4ccc(C)c(C)c4)ccnc23)cc1
→ . | . | -3 | 106
CCc1ccccc1Nc1nc(N)nc(CSc2ccc(F)cc2)n1
→ 139 | 101 | -1 | .
C=CCN(CC=C)S(=O)(=O)c1ccc(C(=O)Nc2sc3c(c2C(N)=O)CCN(C(C)C)C3)cc1
→ 115 | 78 | -6 | 113
O=c1nc(SCc2ccccc2)c2c(n1Cc1cccnc1)CCC2
→ 83 | 69 | -22 | 144
Cn1nc(C(=O)N2CCCCCC2)c2ccccc2c1=O
→ 71 | 93 | -23 | .
CCN(C(=O)c1cc2c(s1)-c1c(C)cccc1OC2)c1cc(C)ccc1C
→ 107 | 89 | -24 | 102
Cc1[nH]c2ccc(Cl)cc2c(=O)c1CN1CCCC(C)C1 (configuration not stated)
→ 93 | 82 | -20 | 109
COc1ccc(C2C(C(=O)O)=C(C)OC2c2ccccc2)cc1 (configuration not stated)
→ 109 | 107 | 13 | 103
Cc1c(Sc2ccc(Cl)cc2)cnn1C(=O)Nc1cccc(C(F)(F)F)c1
→ 4.5* | 13* | . | 101
